Compound activity: PubChem, several laboratories
Rce1 inh: yeast Rce1p protease inhibitors, primary screen, biochemical, fluorescence, cell-free homogeneous | CAAX prenyl protease 2 (Saccharomyces cerevisiae (strain ATCC 204508 / S288c)), Q03530 | yeast membranes, quenched prenylated peptide cleavage fluorescence | calls only | 290,000 compounds, 0.27% hits;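 active = fall in fluorescence gain of 50% or more versus controls, with final raw signal at or below 3038400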;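 also: plate controls were neutral control wells for no effect and wells lacking membranes for full effect; tested at 10 µM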
Target sequence (Q03530 whole entry, looked up): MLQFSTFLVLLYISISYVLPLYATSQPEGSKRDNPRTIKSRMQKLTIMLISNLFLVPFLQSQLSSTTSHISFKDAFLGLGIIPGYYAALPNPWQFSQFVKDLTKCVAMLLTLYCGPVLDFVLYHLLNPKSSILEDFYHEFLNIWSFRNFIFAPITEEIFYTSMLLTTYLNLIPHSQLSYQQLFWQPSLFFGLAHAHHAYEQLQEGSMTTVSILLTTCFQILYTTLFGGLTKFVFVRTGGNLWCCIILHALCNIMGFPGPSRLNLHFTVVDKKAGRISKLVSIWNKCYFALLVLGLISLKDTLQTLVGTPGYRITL
HIV Env fusion: inhibitors of HIV-1 Env-driven cell-cell fusion, primary screen, HeLa-JRFL effector, CEM21 target cells, luciferase | inhibition, % at 12.3 µM | 360,000 compounds, 1.1% hits | AID 651610, 2012;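 active = mean replicate inhibition score of at least 50 and every replicate individually at or above 50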;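 also: 0% = plate neutral controls and 100% = maraviroc near 300 nM; one replicate is shown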
eIF4H FP inh: human eIF4H binding inhibitors, primary screen, translation initiation inhibitor project, biochemical, uHTS, fluorescence polarization | Eukaryotic translation initiation factor 4H (Homo sapiens), Q15056 | eIF4H fluorescence polarization binding assay | inhibition, % at 35 µM | 290,000 compounds, 0.94% hits;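 active = 50% or more with normal probe brightness, or confirmed in later tests; about a fifth of its hits are not listed in these tables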;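 also: calls also rest on retests at 20 µM and on dose response follow-up; 0% = protein and probe with vehicle and 100% = probe without protein; strong numbers were not always called active; many hits fall short of the cut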
UUG fidelity: modulators of yeast start codon fidelity, primary screen, whole organism, S. cerevisiae, single point, plate reader; activity score, % at 18.7 µM; S. cerevisiae UUG-firefly luciferase reporter, luminescence/redox ratio; 350,000 compounds, 0.13% hits;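 active = replicate mean at a twofold rise or more, about +100% in these data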;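 also: firefly luciferase made from a UUG start codon reports start codon fidelity; reporter light over untreated wells divided by growth signal over untreated wells; some hits fall short of that in this replicate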
MT1-MMP act inh: blockers of MT1-MMP proenzyme processing, primary screen, HT1080 RFP-PRO-GFP cells, GFP/RFP fluorescence; GFP/RFP ratio fluorescence, overnight; percent of plate control window, DMSO zero; GFP/RFP ratio change, % at 20 µM; Matrix metalloproteinase-14 (Homo sapiens), P50281; 360,000 compounds, 0.061% hits;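 active = GFP/RFP ratio change of at least 30% with cell ATP level not reduced by more than half and red fluorescence within 50% of control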; also: strong numbers were not always called active
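Assay system – RFP-PRO-GFP reporter HT1080 cells · Compound dosing – single dose of 20 µM compound, 1% DMSO final · Incubation – overnight compound exposure at 37 °C · Measure – GFP/RFP fluorescence ratio · Benchmarks – DMSO wells and RFP-L50D-GFP cells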
PABP FP inh: PABP poly(A) RNA binding inhibitors, primary screen, biochemical, fluorescence polarization, uHTS. 290,000 compounds, 1% hits. inhibition, % at 35 µM. Polyadenylate-binding protein 1 (Homo sapiens), P11940;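 active = 50% or more with normal probe brightness, or confirmed in later tests; about a fifth of its hits are not listed in these tables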;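 also: calls also rest on retests at 20 µM and on dose response follow-up; controls were probe without protein and protein plus probe with vehicle; some compounds called inactive have numbers as strong as hits; many hits fall short of the cut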
CSC inhib: cancer stem cell viability inhibitors, primary screen, luminescence | cancer stem cell-like cells viability | inhibition, % at 7.5 µM | 300,000 compounds, 1.1% hits | AID 2717, 2010;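 active = mean at 75% or more and at least half the replicates too; tested in HMLE shEcad cells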;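 also: 0% = median of negative and 100% = median of positive control wells; the first replicate is given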
MT1-MMP act inh RFP: further read-out of MT1-MMP act inh, marked with its call; RFP signal change, %; measured here: RFP expression control read;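 0 = vehicle wells; hits needed this value within 50% of zero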
The depositor's hits bear a star; & = joins results of further samples. These rows are one share of the data; rates above refer to the full screens.

Clc1ccccc1-c1nnc(-c2ccccc2Cl)o1 was read as Rce1 inh inactive, HIV Env fusion -168, eIF4H FP inh -3, UUG fidelity -16, MT1-MMP act inh -2, PABP FP inh -3, CSC inhib -4 and MT1-MMP act inh RFP 2.
Screening Cc1ccc(Cn2nc(-c3ccccc3)nc2-c2ccccc2)cc1 returned Rce1 inh inactive, HIV Env fusion -117, eIF4H FP inh -1, UUG fidelity -10, MT1-MMP act inh -9, PABP FP inh -5, CSC inhib 14 and MT1-MMP act inh RFP -7.
`O=C(NCCCN1CCOCC1)c1ccc(-c2ccc(Cl)cc2)o1` gave Rce1 inh inactive, HIV Env fusion -8, eIF4H FP inh -3, MT1-MMP act inh 3, PABP FP inh -5, CSC inhib -17 and MT1-MMP act inh RFP 0.
O=C(NCc1ccco1)C(Cc1ccccc1)N1C(=O)c2ccccc2C1=O (stereo not given) was read as eIF4H FP inh -4, UUG fidelity -17, MT1-MMP act inh -4, PABP FP inh 2, CSC inhib -8 and MT1-MMP act inh RFP -3.
For CCCCCc1nnc(NC(=O)CS(=O)(=O)Cc2ccccc2)s1 the results were HIV Env fusion -23, eIF4H FP inh 0, UUG fidelity -5, MT1-MMP act inh -5, PABP FP inh -4, CSC inhib -8 and MT1-MMP act inh RFP -1.
Screening c1ccc(-c2nnc3sc(CN4CCC5(CC4)OCCO5)cn23)cc1 returned Rce1 inh inactive, eIF4H FP inh -6, UUG fidelity -9, MT1-MMP act inh 9, PABP FP inh 2, CSC inhib 14 and MT1-MMP act inh RFP -3.
For Cc1ccc(OCc2cc(C(=O)N(C)CCc3ccccn3)no2)cn1 the results were Rce1 inh inactive, HIV Env fusion -14, UUG fidelity -1, MT1-MMP act inh 1, CSC inhib -4 and MT1-MMP act inh RFP -10.
O=C(CN(Cc1ccccc1F)S(=O)(=O)c1ccc(Cl)cc1)NCCC1=CCCCC1 was read as Rce1 inh inactive, HIV Env fusion 69*, eIF4H FP inh -14, UUG fidelity -17, MT1-MMP act inh -9, PABP FP inh 5, CSC inhib 31 and MT1-MMP act inh RFP -16.
CC(Sc1nc2ccccc2s1)C(=O)Nc1ccc2c(c1)OCO2 (stereo not given) was read as Rce1 inh inactive, eIF4H FP inh 11, MT1-MMP act inh 2, PABP FP inh -10, CSC inhib -5 and MT1-MMP act inh RFP 2.
Screening COc1ccc(S(=O)(=O)N2CCCCC2)cc1Br returned Rce1 inh inactive, HIV Env fusion -2, eIF4H FP inh 5, UUG fidelity -7, MT1-MMP act inh -3, PABP FP inh -12, CSC inhib 1 and MT1-MMP act inh RFP 2.
O=C(CN1CCN(CC(=O)Nc2cccc(F)c2)CC1)Nc1ccc(-c2ccccc2)cc1 was read as Rce1 inh inactive, HIV Env fusion 9, eIF4H FP inh -13, UUG fidelity 44, MT1-MMP act inh -3, PABP FP inh 18, CSC inhib -7 and MT1-MMP act inh RFP -3.
For CCCNC(=O)c1nc(C)n(-c2ccc([N+](=O)[O-])cc2)n1 the results were Rce1 inh inactive, HIV Env fusion -16, eIF4H FP inh 12, MT1-MMP act inh 4, PABP FP inh -7, CSC inhib -5 and MT1-MMP act inh RFP -1.
`CCOc1ccccc1NC(=O)Nc1ccccn1` gave HIV Env fusion 12, eIF4H FP inh -3, MT1-MMP act inh -11, PABP FP inh -4, CSC inhib -4 and MT1-MMP act inh RFP -7.
`O=C(C=C1CCN(c2ncc(C(F)(F)F)cc2Cl)CC1)NNC(=O)Nc1ccc(Cl)cc1` gave Rce1 inh inactive, HIV Env fusion -60, eIF4H FP inh -1, UUG fidelity -9, MT1-MMP act inh 3, PABP FP inh -6, CSC inhib 8 and MT1-MMP act inh RFP -6.
Screening COc1ccc2oc(C(=O)OCC(=O)Nc3ccc(OC)c(S(N)(=O)=O)c3)c(C)c2c1 returned Rce1 inh inactive, HIV Env fusion -40, UUG fidelity 1, MT1-MMP act inh 1 and MT1-MMP act inh RFP 1.
`COCCn1c(=O)[nH]c2cc(C(=O)NCCc3ccc(S(N)(=O)=O)cc3)ccc2c1=O` gave HIV Env fusion 14, eIF4H FP inh -10, MT1-MMP act inh -1, PABP FP inh -6, CSC inhib 11 and MT1-MMP act inh RFP -3.
`CSc1nc(=S)c2[nH]c(=S)[nH]c2[nH]1` gave Rce1 inh inactive, HIV Env fusion 2, eIF4H FP inh 92*, UUG fidelity -16, MT1-MMP act inh 0, PABP FP inh 59*, CSC inhib -2 and MT1-MMP act inh RFP -1.
`Cc1cnc(NC(=O)c2ccc3c(c2)C(=O)N(Cc2cccnc2)C3=O)s1` gave Rce1 inh inactive, HIV Env fusion 7, eIF4H FP inh -13, UUG fidelity -11, MT1-MMP act inh -4, PABP FP inh -8, CSC inhib -2 and MT1-MMP act inh RFP 0.
For CN(C)S(=O)(=O)c1ccc(Cl)c(C(=O)NC2=NCCS2)c1 the results were Rce1 inh inactive, HIV Env fusion 14, eIF4H FP inh -1, UUG fidelity -18, MT1-MMP act inh -3, PABP FP inh -7, CSC inhib -8 and MT1-MMP act inh RFP 1.
Screening CCOC(=O)c1c(NC(=O)CCN2CCOCC2)sc(C)c1-c1ccccc1 returned Rce1 inh inactive, HIV Env fusion -2, eIF4H FP inh -14, MT1-MMP act inh -3, PABP FP inh -9, CSC inhib 1 and MT1-MMP act inh RFP -2.
`CCC(C)NC(=O)C1CCN(S(=O)(=O)c2ccc3c(c2)CC(C)N3C(C)=O)CC1` (stereo not given) gave Rce1 inh inactive, HIV Env fusion 7, eIF4H FP inh -7, UUG fidelity -15, MT1-MMP act inh 0, PABP FP inh -28, CSC inhib -12 and MT1-MMP act inh RFP -1.
`Nc1ccc(CNC(=O)OCC2c3ccccc3-c3ccccc32)cc1` gave Rce1 inh inactive, HIV Env fusion -19, UUG fidelity 7, MT1-MMP act inh 1, CSC inhib -14 and MT1-MMP act inh RFP -6.
`C/C(=N\Nc1ccccc1)c1cccs1` gave HIV Env fusion -6, UUG fidelity -18, MT1-MMP act inh -1 and MT1-MMP act inh RFP 3.
Screening Cc1ccc(CSc2nnc(-c3ccc(S(=O)(=O)N4CCCC4)cc3)o2)cc1 returned Rce1 inh inactive, HIV Env fusion -24, eIF4H FP inh -2, UUG fidelity -15, MT1-MMP act inh 7, PABP FP inh -5, CSC inhib -16 and MT1-MMP act inh RFP 6.
`O=C(c1cccc(C(F)(F)F)c1)N1CCOc2ccccc21` gave Rce1 inh inactive, HIV Env fusion 15, eIF4H FP inh -1, UUG fidelity 0, MT1-MMP act inh 1, PABP FP inh 19, CSC inhib -4 and MT1-MMP act inh RFP 0.
O=C(OCn1nnc2ccccc2c1=O)c1cccs1 was read as Rce1 inh inactive, HIV Env fusion -21, eIF4H FP inh -7, UUG fidelity 6, MT1-MMP act inh 7, PABP FP inh -14, CSC inhib -10 and MT1-MMP act inh RFP 9.
Cc1oc2c(C)c3oc(=O)c(CCC(=O)NCCN4CCOCC4)c(C)c3cc2c1C was read as Rce1 inh inactive, eIF4H FP inh -4, UUG fidelity 16, MT1-MMP act inh 4, PABP FP inh 0, CSC inhib 0 and MT1-MMP act inh RFP -3.
Screening O=C(Cc1c(F)cccc1Cl)OCN1C(=O)c2ccccc2C1=O returned Rce1 inh inactive, HIV Env fusion 23, eIF4H FP inh 8, UUG fidelity 2, MT1-MMP act inh -2, PABP FP inh 5, CSC inhib 13 and MT1-MMP act inh RFP 1.
`O=C(Nc1cccc([N+](=O)[O-])c1)c1ccc(-c2ccccc2)cc1` gave Rce1 inh inactive, eIF4H FP inh 3, MT1-MMP act inh 10, PABP FP inh -10, CSC inhib -1 and MT1-MMP act inh RFP 6.
Screening CCOc1cc(CNCCc2ccc(S(N)(=O)=O)cc2)ccc1OCC(=O)NC1CCCCC1 returned Rce1 inh inactive, eIF4H FP inh -10, UUG fidelity -7, MT1-MMP act inh 0, PABP FP inh 0, CSC inhib 4 and MT1-MMP act inh RFP -2.
`Cc1ccc(S(=O)(=O)N2CCN(C(=O)N3CCCCC3)CC2)c(C)c1` gave HIV Env fusion -15, UUG fidelity -3, MT1-MMP act inh 1 and MT1-MMP act inh RFP 1.
C[C@H]1CN([C@@H](C)CO)C(=O)c2cccc(NC(=O)C3CC3)c2O[C@H]1CN(C)Cc1ccncc1 was read as HIV Env fusion 8, UUG fidelity -14&5, MT1-MMP act inh 1, CSC inhib -2 and MT1-MMP act inh RFP 6.
`O=C(Nc1nnc(COc2ccc(Cl)cc2)s1)c1ccc([N+](=O)[O-])cc1` gave Rce1 inh inactive, eIF4H FP inh -7, UUG fidelity -14, MT1-MMP act inh 4, PABP FP inh -11, CSC inhib -5 and MT1-MMP act inh RFP 8.
Screening O=C(NCCCn1ccnc1)c1ccc(Cl)c(Cl)c1 returned Rce1 inh inactive, HIV Env fusion -91, eIF4H FP inh 2, UUG fidelity -25, MT1-MMP act inh 1, PABP FP inh -4, CSC inhib -6 and MT1-MMP act inh RFP -3.
`O=C(NCCCN1CCCC1=O)c1ccccc1NS(=O)(=O)c1ccc(F)cc1` gave eIF4H FP inh 1, UUG fidelity -17, MT1-MMP act inh 2, PABP FP inh 0, CSC inhib -1 and MT1-MMP act inh RFP 8.
`O=C(COC(=O)/C(=C/c1cccs1)c1cccs1)NCc1ccccc1Cl` gave Rce1 inh inactive, HIV Env fusion 8, eIF4H FP inh 9, UUG fidelity -12, MT1-MMP act inh -3, PABP FP inh -3, CSC inhib -6 and MT1-MMP act inh RFP -7.
`COc1cc(/C=C2\SC(=S)N(CCC(=O)Nc3cccc(O)c3)C2=O)cc(OC)c1OC` gave Rce1 inh inactive, HIV Env fusion 2, eIF4H FP inh 7, UUG fidelity -9, MT1-MMP act inh 11, PABP FP inh 2, CSC inhib 8 and MT1-MMP act inh RFP -6.
Screening Cc1cc(C)n2nc(SC(C)C(=O)N3CCCC3)nc2n1 (stereo not given) returned HIV Env fusion 9, UUG fidelity -15, MT1-MMP act inh 1 and MT1-MMP act inh RFP 4.
`O=C(Nc1ccccn1)C1CCN(c2ncnc3c2nc2n3CCCCC2)CC1` gave Rce1 inh inactive, HIV Env fusion 2, eIF4H FP inh -2, UUG fidelity -21, MT1-MMP act inh 0, PABP FP inh 3, CSC inhib -16 and MT1-MMP act inh RFP -10.
Cc1nc2ccccc2nc1CC(O)(c1ccccc1)c1ccccc1 was read as HIV Env fusion 11, UUG fidelity 13, MT1-MMP act inh 0 and MT1-MMP act inh RFP -8.
Screening Cc1ccc(NC(=O)CSc2nnc(CNC(=O)c3ccco3)n2C)c(C)c1 returned Rce1 inh inactive, HIV Env fusion -15, UUG fidelity -12, MT1-MMP act inh -1, CSC inhib -5 and MT1-MMP act inh RFP 6.
Screening C(=C\c1ccccc1)/CN1CCN(C(c2ccnc3ccccc23)c2nnnn2C2CCCC2)CC1 (stereo not given) returned HIV Env fusion -6, UUG fidelity -5, MT1-MMP act inh 0 and MT1-MMP act inh RFP -4.
Screening COc1ccc(S(=O)(=O)N2CCCCC2)cc1NC(=O)CCOc1cc(C)ccc1C returned UUG fidelity -13, MT1-MMP act inh 5, CSC inhib -4 and MT1-MMP act inh RFP -3.
For Cc1cccc(Nc2n[nH]c(C)c2[N+](=O)[O-])c1 the results were Rce1 inh inactive, eIF4H FP inh -2, MT1-MMP act inh 0, PABP FP inh 4, CSC inhib -11 and MT1-MMP act inh RFP -6.
